# Assay outcomes: PubChem BioAssay, National Center for Advancing Translational Sciences (NCATS)
# VACV mCherry inh = vaccinia inhibition (mCherry reporter); Vaccinia virus mCherry reporter infection, fluorescence; about a quarter of the inactives have no number; Potency, µM (series often up to 36.5 µM), for inactives: at the highest dose activity change, negative = inhibition, hits mostly inhibitors; 310,000 compounds, 0.63% hits; AID 720579; active = well fitted inhibition curve with a large enough effect; inconclusive = small, poorly fitted or top-dose-only effect; inactive = no such curve, though single readings can be large or run the other way; tested in A549 cells; further: nearly all actives have a fitted effect of over 35% in size; inactives centre near -10
# VACV Venus inh = inhibitors of vaccinia virus (Venus reporter) | Potency, µM (top dose mostly 36.5 µM), without a hit: at the top dose activity change, negative = inhibition, usual class: inhibitors | Vaccinia virus Venus reporter expression, fluorescence | 330,000 compounds, 0.46% hits; active means well fitted inhibition curve with a large enough effect; inconclusive means small, poorly fitted or top-dose-only effect; inactive means no such curve, though single readings can be large or run the other way; tested in A549 cells; further: nearly all actives have a fitted effect of over 30% in size; inactives centre near -10
# * hit, by the source's call; i = inactive; ? = inconclusive; . = not tested or not shown; [ ] = another dose, or the depositor's remark. On the % scale 0 is the no-effect control and ±100 the full control effect; potency means the concentration at half of the fitted maximal effect.
# Sequence of screens: VACV mCherry inh, VACV Venus inh
> O=C(Nc1nnc(CCN2CCOCC2)s1)C1CCCCC1
 : ., -17%
> CCOC(=O)c1c(NC(=S)NC(=O)c2ccc(Cn3cc(Cl)cn3)o2)sc2c1CCCCC2
 : i, -5%
> CCN1CCN(c2cc(C)c3cc(NC(=O)c4ccccc4F)ccc3n2)CC1
 : -11%, -12%
> CC(C)Cc1nc(N2CCNCC2)c(C#N)c2c1CCC2
 : -7%[7.34 µM], -14%[7.34 µM]
> O=C(Nc1ccc(C(F)(F)F)cc1)c1csc(-c2ccncc2)n1
 : -15%, -8%
> CCOc1ccc(S(=O)(=O)N(C)c2ccc(OCC(=O)NC3=NCCS3)cc2)cc1
 : i, -8%
> COC(=O)c1cc(CNC(=O)c2cccc3ccccc23)cc(NC(=O)c2ccccc2OC)c1
 : -13%, 4%
> CC(/C=C/c1ccc2c(c1)OCO2)=N\NC(=O)c1cccc([N+](=O)[O-])c1
 : -17%, -12%
> O=C(NC1CCSC1=O)C1CCCCC1 (stereo not given)
 : i, 0%
> Cc1nc2oc3ccc(F)cc3c(=O)c2cc1C(=O)NC(C)(C)C
 : 0%, -7%
> Cc1ccc(-c2csc3ncnc(Cl)c23)cc1
 : -6%, -1%
> O=C(NC(=S)Nc1cc(-c2nc3ccccc3[nH]2)ccc1Cl)c1ccc2c(c1)OCO2
 : -26%, -21%
> CCOC(=O)C1=C(C)Nc2ncnn2C1c1ccc2c(c1)OCO2 (stereo not given)
 : i, -18%
> CC(=O)Nc1cccc(-c2cnc(N)c(C(=O)c3cccnc3)n2)c1
 : 13µM*, 10µM*
> NS(=O)(=O)c1ccc(CCNC(=O)Cn2c(=O)c3cccn3c3cccnc32)cc1
 : i, -9%
> O=C(CCN1C(=O)c2ccccc2C1=O)CN1CCOCC1
 : 6%, -3%
> C/C(=N/NC(=O)c1ccc2nc[nH]c2c1)c1cccs1
 : -9%, -5%
> CCn1c(SCC(=O)NC(C)C(C)C)nc2cc(S(=O)(=O)N3CCOCC3)ccc21 (stereo not given)
 : -4%, -4%
> CCCc1cc(C(=O)Nc2cc(OC)c(Cl)cc2OC)no1
 : 4%, -13%
> O=C(CC1Sc2ccccc2NC1=O)OC(C(=O)NCCc1ccccc1)c1cccnc1 (stereo not given)
 : i, -1%
> CCOC(=O)N1CCC(NC(=O)c2ccc3c(c2)N(Cc2ccc(Cl)cc2)C(=O)c2ccccc2S3=O)CC1 (stereo not given)
 : ?, ?
> COC(=O)C1=C[C@@H](C(=O)OC)[C@@H]2C3=C(C(=O)[C@]2(C)NC(=O)c2ccccc2)[C@H](C)n2c(=O)n(-c4ccccc4)c(=O)n2[C@@H]3C1
 : i, -7%
> CC(C)c1ccc(/C=N/NC(=O)c2nnn(-c3nonc3N)c2CN(C)C2CCCCC2)cc1
 : -13%[7.34 µM], 0%[7.34 µM]
> Clc1ccc(CSc2nnc([C@@H]3CCCN3)o2)cc1
 : ., -12%
> COc1ccc(C(C#N)N2CCC(c3ccccc3)=N2)cc1OC (stereo not given)
 : i, 0%
> COc1cc2c(=O)n(Cc3ccccc3)c(=O)n(CC(=O)NCC3CCCO3)c2cc1OC (stereo not given)
 : -9%, 8%
> CCCCn1nnc(NC(=O)CC23CC4CC(CC(C4)C2)C3)n1
 : ., ?
> O=C1CC(N2CCOCC2)=NN1c1ccc([N+](=O)[O-])cc1
 : i, -14%
> CC1(Cc2ccccc2OC(F)(F)F)C(=O)Nc2c(Cl)ccc(Cl)c21 (stereo not given)
 : i, -5%
> CC(=O)Nc1ccc(S(=O)(=O)N2CCSC2c2ccco2)cc1 (stereo not given)
 : -8%, 2%
> N#Cc1c(F)cccc1N1CCOCC1
 : ., -17%
> CCOc1ccc(S(=O)(=O)N2CC(=O)Nc3ccccc32)cc1C#N
 : -24%, -10%
> COc1cc(C(=O)NCC2CCCCC2)cc(OC)c1OC
 : i, -7%
> CC1(C(=O)Nc2ccc3c(c2)OCO3)CC1(Cl)Cl (stereo not given)
 : 0%, -6%
> COc1cccc(NC(=O)CN2C(=O)NC3(CCCC3)C2=O)c1
 : -11%, -4%
> CC(=O)c1cccc(NC(=O)c2noc3c2CCCC3)c1
 : -13%, -15%
> CCC(C(=O)NCc1ccc(C)o1)n1nc(C)c2c(C)n(-c3ccccc3)nc2c1=O (stereo not given)
 : i, -9%
> O=C(Cn1cc(C(=O)c2cccs2)c2ccccc21)NCc1ccc2c(c1)OCO2
 : i, -11%
> COc1cccc(OC)c1C1=NCC(=O)Nc2c1oc1ccc(Br)cc21
 : ?, ?
> O=C(CCNC(=O)c1ccc(Br)cc1)NCc1ccccn1
 : i, 0%
> COc1cccc(-c2c(-c3cc(OC)cc(OC)c3)n(C)c3ccc(-c4ccc5cc[nH]c5c4)cc23)c1
 : -16%, -23%
> COc1ccccc1CNC(=O)CSC(=S)N1CCCC1
 : i, -3%
> CCOC1=NS(=O)(=O)c2ccccc21
 : -27%, -14%
> COc1ccc(NC(=O)c2c(-c3ccccc3Cl)noc2C)c(OC)c1
 : i, -6%
> CCOc1ccc(N2C(=O)Nc3ccccc3C2(O)C(=O)NCc2ccc3c(c2)OCO3)cc1 (stereo not given)
 : -25%, -4%
> C[C@]12c3[nH]c4cc(-c5ccco5)ccc4c3CCN1C(=O)[C@@H](CC(=O)NCc1ccco1)C[C@@H]2C(=O)N1CCCCC1
 : -20%, ?
> CN(C)S(=O)(=O)c1ccc(Cl)c(NC(=O)CN2CCCC2)c1
 : 7%, -6%
> Cc1cc2c(c(=O)o1)C(Cc1ccccc1)C(C#N)=C(N)O2 (stereo not given)
 : -6%, 2%
> CCOc1ccc(/C=N/NC(=O)COc2ccccc2-c2ccccc2)cc1
 : ?, ?
> COC(=O)c1c(-c2ccc(F)cc2)csc1NC(=O)c1ccco1
 : i, -15%

# The list continues.
compound,VACV mCherry inh,VACV Venus inh
COc1ccc(C(N)=S)c(OC)c1,-12%,-22%
CCn1c(Cn2nnc(-c3ccccc3)n2)nnc1SCc1ccc(Cl)c(Cl)c1,.,?
Cc1ccc(OCCSc2nnc(NC(=O)c3ccco3)s2)cc1,-11%,-3%
COc1ccc(C2c3c(ccc4ccccc34)Oc3ncn4nc(-c5ccco5)nc4c32)cc1OC (stereo not given),i,-5%
CC[C@H](C)[C@H]1CNC(=S)N1CC1CCN(CCC(C)(C)C)CC1,-24%,4%
COc1ccccc1-c1cc(C(F)(F)F)nc(S(=O)(=O)CCCC(=O)N2CCCCC2C)n1 (stereo not given),-27%,-21%
Oc1cc2ccccc2cc1-c1n[nH]c(=S)o1,-7%,-14%
Cn1nnnc1SCCCNCc1ccc(-c2cccc(Cl)c2)o1,-12%,-4%
CCN(CC)CCN1c2ccccc2Sc2ccc3ccccc3c21,-21%,-16%
Cc1ccc(S(=O)(=O)N2CCOCC2)cc1C(=O)NC1CCCC1,-4%,6%
CC(C)NC(=O)NNC(=O)c1nn(-c2ccc(F)cc2)ccc1=O,i,-10%
CC(=O)/C(=N\Nc1ccccc1Cl)Sc1cccc2cccnc12,-17%,-9%
Cc1nnn(C23CC4CC(CC(C(=O)NN)(C4)C2)C3)n1,?,-13%
CCc1ccc2nc(N(CCCN(C)C)C(=O)c3ccc(S(=O)(=O)N4CCc5ccccc5C4)cc3)sc2c1,-10%,-23%
Cc1nnc(SCC(=O)N2CCC(C(N)=O)CC2)s1,-8%,0%
CCOc1ccc(NC(=O)c2ccc3nc(Cc4ccccc4)oc3c2)cc1,-19%,-20%
CCC(C)N(C(=O)COc1ccccc1C(=O)NCc1ccccc1)C1CCS(=O)(=O)C1 (stereo not given),-17%,-4%
O=C(COC(=O)CCOc1ccccc1)Nc1ccc(Cl)cn1,-18%,-9%
COc1ccc(C(=O)N/N=C/c2ccc(OC)c(CN3CCN(c4ccc(F)cc4)CC3)c2)cc1,-5%,0%
CCc1ccc(/C=N/NC(=O)c2c[nH]c3ccccc23)s1,?,?
Cc1ccc(N(C(=O)c2csnn2)C(C(=O)NC(C)(C)C)c2ccncc2)cc1 (stereo not given),-14%,-13%
Cc1ccc(-c2noc(-c3ccc(N4CCCC4)c([N+](=O)[O-])c3)n2)cc1,-14%,-14%
COCCn1c(C)cc(C(=O)CN2c3cccc4cccc(c34)S2(=O)=O)c1C,-15%,-6%
Oc1cc(O)c2c(c1)OC(c1ccc(O)c(O)c1)C(O)C2 (stereo not given),0%,-15%
CCOc1ccc(N(CC(=O)NC2CCCCCC2)S(=O)(=O)c2c(C)noc2C)cc1,1%,-8%
CC(=O)Nc1cccc(C(=O)NCCc2ccco2)c1,i,-7%
CC(=O)N1CCc2cc(Br)cc(S(=O)(=O)NCCCN(C)Cc3ccccc3)c21,-6%,-2%
CCC1(c2ccccc2)NC(=O)N(CC(=O)N(CC(=O)Nc2ccccc2C(F)(F)F)Cc2ccco2)C1=O (stereo not given),-4%,-19%
CN(C)Cc1c(-c2ccc(Cl)cc2)nc2ccc(Cl)cn12,-14%,-10%
O=C(O)C/C(=C\c1ccc2c(c1)OCO2)c1nc2ccccc2s1,0%,1%
CCN(CCCNC(=O)c1nn(-c2ccc(OC)cc2)c(=O)c2c1c1ccccc1n2C)c1ccccc1,-10%,-3%
CCc1ccc(Nc2nnc(SCC(=O)Nc3cccnc3Cl)s2)cc1,-2%,-17%

# An excerpt of these results, field by field.
COc1ccccc1CNC(=O)CSC(=S)N1CCCC1
  VACV mCherry inh: i | VACV Venus inh: -3%

CCOC1=NS(=O)(=O)c2ccccc21
  VACV mCherry inh: -27% | VACV Venus inh: -14%

COc1ccc(NC(=O)c2c(-c3ccccc3Cl)noc2C)c(OC)c1
  VACV mCherry inh: i | VACV Venus inh: -6%

CCOc1ccc(N2C(=O)Nc3ccccc3C2(O)C(=O)NCc2ccc3c(c2)OCO3)cc1 (stereo not given)
  VACV mCherry inh: -25% | VACV Venus inh: -4%

# Single records, from the list above:
# Record of `O=C(O)C/C(=C\c1ccc2c(c1)OCO2)c1nc2ccccc2s1` = VACV mCherry inh: 0%; VACV Venus inh: 1%
# Record of `CN(C)Cc1c(-c2ccc(Cl)cc2)nc2ccc(Cl)cn12` = VACV mCherry inh: -14%; VACV Venus inh: -10%

# More structures:
compound,VACV mCherry inh,VACV Venus inh
Cc1ccccc1-c1cccc([C@@H]2C[C@H]3CN(Cc4cccnc4)C(=O)[C@]34CCCN24)c1,0%,7%
O=C(Cn1ncn2nc(-c3cccs3)cc2c1=O)NCc1ccccc1Cl,-8%,-10%
COc1cccc(-c2nn(-c3ccccc3)cc2CN2CCCO2)c1,-2%,3%
Cc1ccc(C2(SCC(N)C(=O)O)c3ccccc3-c3ccccc32)cc1 (stereo not given),i,-4%
NC(=O)N(CCC(=O)O)c1ccccc1,-15%,-5%
CSc1ccc(C(c2c(C)[nH][nH]c2=O)c2c(C)[nH][nH]c2=O)cc1,0%,-3%
COc1ccc(CC(=O)Nc2ccc(C)cc2O)cc1S(=O)(=O)N1CCOCC1,-8%,6%
COc1cc2c(cc1OC)C(COc1ccccc1OC)N(C(=O)CC(C)C)CC2 (stereo not given),3%,0%
CCc1ccc(C(=O)/C=C/c2ccc([N+](=O)[O-])o2)cc1,-12%[1.46 µM],-3%
COc1ccc(CNC(=O)CN(Cc2ccccc2F)C(=O)c2csnn2)cc1,i,0%
O=C(CSc1nc2ccccc2c(=O)[nH]1)Nc1ccccc1O,?,-19%
CCc1ccccc1N1C(=O)c2ccccc2S1(=O)=O,-13%,-9%
COC(=O)C(CCSC)NC(=O)c1cccc([N+](=O)[O-])c1 (stereo not given),i,-6%
COc1cc(S(=O)(=O)NC2CC(C)(C)NC(C)(C)C2)c(OC)cc1Cl,-28%,1%
COCC(=O)NC1CCCCCC1,-14%,-15%
CCOCCCN(C)C1CCN(C(=O)c2oc3ccccc3c2NC(=O)c2cccc([N+](=O)[O-])c2)CC1,?,-2%
CCN(C[C@H]1N[C@@](CC)(C(=O)OC)[C@H]2C(=O)N(C)C(=O)[C@@H]12)C(=O)Nc1ccccc1,i,-6%
Cc1csc(SCC(=O)Nc2sccc2C(N)=O)n1,-11%,1%
CCOc1ccc(N/C(=N/c2nc(C)cc(C)n2)NC(C)=O)cc1,-21%,-6%
COc1cccc(CN2CCN(C(=O)c3cc(-c4ccncc4)nc4ccc(C)cc34)CC2)c1,?,-28%
O=C(NCc1ccc(Cl)cc1)c1cc2c(s1)-c1ccccc1SC2,-13%,-11%
CCN(CC)S(=O)(=O)c1cc(NC(=O)CN2C(=O)NC(C)(c3ccccc3)C2=O)ccc1C (stereo not given),-20%,-9%
O=C(CS(=O)(=O)c1ccc(F)cc1)N1CCN(c2ccccc2)CC1,-9%,0%
CCC(CC)C(=O)Nc1ccc([N+](=O)[O-])cn1,-29%,-11%
COCCCNC(=O)CSc1nc2cc3c(cc2c(=O)n1CCCC(=O)NCc1ccc2c(c1)OCO2)OCO3,-5%,-8%
CC(C)Oc1ccc(C(=O)Nc2ccccc2N2CCCC2)cc1,-19%,-37%
COCCOc1ccc(C(F)(F)F)cc1Nc1nc2ccccc2o1,?,-23%
COc1ccc(Nc2ncc(C(=O)Nc3cc(C)ccc3OC)c3ccccc23)cc1,-11%,-3%
COc1ccc(-n2ncc(C(=O)Nc3cccc(C(F)(F)F)c3)c2C2CCN(C(=O)OC(C)(C)C)CC2)cc1,-12%,-17%
